Screens deposited in PubChem BioAssay by several laboratories.
Calb FLC: C. albicans growth inhibition with fluconazole, primary screen, CaCi-2 strain, Alamar Blue fluorescence. growth inhibition, % (test concentration not listed). AID 1979, 2009. actives 0.57% (n = 300,000). C. albicans CaCi-2 (fluconazole-resistant clinical isolate) + fluconazole, 48 h;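 active = most replicates above 75%; inconclusive = exactly half above 75%; inactive = most below 75%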;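 also: all wells also contain fluconazole at 8 µg/ml as a sub-toxic cotreatment; 0% = median of DMSO wells and 100% = median of geldanamycin control wells; wells of about 8 µL received 7.5 nL stock; the first replicate is given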
A1 inh: caspase 3/7 activation in MEF A1-2A-BIM cells, primary screen, A1 inhibitor project, cell-based, luminescence, HTS; caspase activation, % (test concentration not listed); AID 2462, 2010; actives 0.066% (n = 330,000); Caspase-Glo 3/7 luminescence, 3 h; percent of clofoctol response, vehicle zero;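 active = over half of replicate activation scores above 10%, or exactly half above 10 with the replicate mean above 10; inconclusive = replicate mean below 10 yet half the replicates above 10; inactive = over half of replicates below 10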;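 also: wells of about 30 µL received 50 nL stock; many hits fall short of the cut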
rRNA inh HTS: reduced GFP signal of wild-type E. coli, primary screen, bacterial rRNA inhibitor project, GFP/RFP fluorescence, OD600, single point; E. coli WT GFP vs humanized-ribosome RFP mutants, 24 h; hits give low values; DMSO median 0, no signal -100; GFP signal change (wild-type ribosome), % (no concentration beside the values); actives 1.6% (n = 350,000); AID 720706, 2013;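 active = significant combined selectivity score with lowered wild-type GFP, culture density cut under 30%, mutant RFP and density less affected; inactive = any of these conditions unmet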; also: one replicate is shown; some compounds called inactive have numbers as strong as hits
Beta cell apopt: inhibitors of cytokine-induced beta cell apoptosis, primary screen, luminescence. INS-1E cytokine-induced death, ATP luminescence, 48 h; percent of positive-control rescue, neutral wells zero. protection from apoptosis, % (concentration not given with the values). actives 0.8% (n = 300,000). AID 435005, 2010;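 active = all replicates at 75% or more, or half of them and the mean; inconclusive = half reach 75% but not the mean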;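 also: 0% = cytokine-treated negative control wells and 100% = positive control rescue; higher means more ATP so stronger rescue from cytokine killing; wells of about 40 µL received 100 nL stock; the first replicate is given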
RanGTP-Impb inh: inhibitors of RanGTP-importin-beta interaction, primary screen, biochemical, FRET, CFP-Ran, YFP-importin-beta, homogeneous; Ran GTPase (GTP-bound) - importin-beta complex; cell-free CFP-Ran/YFP-importin-beta FRET ratio; inhibition, % (concentration not given with the values); actives 1.1% (n = 300,000); AID 2216, 2009;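 active = most replicates above 15%; inconclusive = exactly half above 15%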;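 also: 0% = DMSO wells and 100% = Ran loaded with GDP instead of GTP; wells of about 40 µL received 100 nL stock; the first replicate is given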
Vif A3G: inhibitors of Vif binding to APOBEC3G peptide, primary screen, biochemical, TR-FRET, GST-Vif 1-94, biotin-A3G peptide, dose response retest (AID 1117319). actives 0.57% (n = 260,000). TR-FRET GST-Vif / biotin-A3G peptide binding; higher % means a stronger effect; test concentration not given here; strong numbers were not always called active. Virion infectivity factor (Human immunodeficiency virus type 1 group M subtype B (isolate …. inhibition, %; hits with a dose series show IC50 in µM;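 active = above the screen mean plus three standard deviations and confirmed in dose response; inconclusive = results disagree or hit not tested in dose response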;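 also: Vif residues 1-94 fused to GST binding biotinylated APOBEC3G peptide 110-148; 0% = full assay without inhibitor and 100% = GST in place of GST-Vif; retest series ran down from 100 µM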
AF4-AF9 inh: inhibitors of AF4 peptide binding to AF9, primary screen, biochemical, AlphaScreen, biotin-AF4 peptide, FLAG-AF9, single point. Protein AF-9 (Homo sapiens), P42568. inhibition, % at 10 µM. actives 0.47% (n = 350,000);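 active = every replicate reaching a set inhibition limit, whatever the replicate mean, cut at about 25% in these data; inconclusive = mean inhibition reaches that limit but some replicates miss it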;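 also: 0% = plate neutral control median and 100% = total signal loss; the record names both 10 and 1 µM as test concentration; the first replicate is given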
Target sequence (P42568 whole entry, looked up): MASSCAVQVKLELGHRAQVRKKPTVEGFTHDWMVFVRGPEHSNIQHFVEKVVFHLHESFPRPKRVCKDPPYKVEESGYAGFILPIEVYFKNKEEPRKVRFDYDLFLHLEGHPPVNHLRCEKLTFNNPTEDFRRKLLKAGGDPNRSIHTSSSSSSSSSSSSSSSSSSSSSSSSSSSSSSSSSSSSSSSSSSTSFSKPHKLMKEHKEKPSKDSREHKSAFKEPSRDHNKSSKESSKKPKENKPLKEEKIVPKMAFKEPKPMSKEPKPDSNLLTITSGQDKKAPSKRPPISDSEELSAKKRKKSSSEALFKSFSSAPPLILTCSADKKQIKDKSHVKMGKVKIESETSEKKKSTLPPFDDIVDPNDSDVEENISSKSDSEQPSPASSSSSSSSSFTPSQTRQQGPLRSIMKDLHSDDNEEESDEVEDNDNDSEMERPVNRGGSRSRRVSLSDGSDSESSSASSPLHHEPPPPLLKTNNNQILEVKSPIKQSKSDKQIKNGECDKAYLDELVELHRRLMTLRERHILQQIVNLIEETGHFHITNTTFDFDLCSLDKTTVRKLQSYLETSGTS
T cruzi inh: inhibitors of intracellular T. cruzi growth, primary screen, luminescence, NIH3T3 host cells. AID 1885, 2009. T. cruzi beta-gal in NIH3T3, 90 h. actives 1.4% (n = 300,000). inhibition, % (no concentration beside the values);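 active = mean inhibition across valid replicates above about 55%, limit read from the data; inconclusive = mean below that limit but half or more replicates reach it; inactive = mean below it, under half of replicates reach it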;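 also: signal also drops with host cell toxicity which is not excluded here; 0% = plate median of DMSO wells and 100% = zero luminescence signal; higher percent means less beta-gal luminescence so fewer parasites; stock transfer was 50 nL into about 50 µL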
rRNA inh HTS OD600: recorded beside rRNA inh HTS, whose call it bears; OD600 change, %; measured here: OD600 growth;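 optical density of the mix in the first replicate; 0 = DMSO median and -100 = no signal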
rRNA inh HTS RFP: second read-out of rRNA inh HTS, no call of its own (marks repeat the call); RFP signal change, %; measured here: RFP humanized mutant strains;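 first replicate; 0 = DMSO median and -100 = no signal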
An asterisk follows results filed as active; ? = inconclusive; · = not tested or not shown; & = joins results of further samples. These rows are one share of the data; count on the stated rates, not on these rows.

SMILES	Calb FLC	A1 inh	rRNA inh HTS	rRNA inh HTS OD600	rRNA inh HTS RFP	Beta cell apopt	RanGTP-Impb inh	Vif A3G	AF4-AF9 inh	T cruzi inh
CC/C(C)=N/NC(=S)NCc1ccco1	31	?	·	·	·	7	5.4	4%	·	-12
COc1ccc(C(=O)C2CCN(CC(=O)Nc3cc(C)cc(C)c3)CC2)cc1	2	-0.3	-31	-64	13	2	-1.1	·	-2.2	24
N#Cc1ccccc1NCC(=O)N1CCN(S(=O)(=O)c2ccccc2)CC1	·	0.0	5	15	0.4	0	·	·	1.5	·
CC1Oc2ccccc2N(Cc2cccc(F)c2)C1=O (stereo unspecified)	-2	-0.3	9	4	1.6	-2	?	4%	2.1	1
Cc1nn(-c2ccccc2)nc1CNC(=O)C1CCC1	-11	-0.7	11	3	-0.7	-1	-0.6	·	1.2	·
O=C(CSc1c2c(nc3ccccc13)CCC2)N1CCCC1	4	0.2	13	13	3.3	-14	0.2	24%	-2.2	-8
COCCN1Cc2cccc(C(=O)Nc3cc(C)cc(C)c3)c2C1=O	7	-1.0	·	·	·	-2	0.9	?	·	4
N#Cc1ccc(-c2cccnc2)nc1SCC(N)=O	-4	-0.6	-6	2	-1.4	-6	-1.5	-4%	-2.7	-4
O=C(CCn1c(=S)oc2ccccc21)NC1CCCCCCC1	-2	0.4	10	4	2.0	0	-0.7	-1%	-9.0	5
Cc1ccc2nc(C)c(C(=O)N/N=C/c3cccs3)cc2c1	0	0.3	8	6	-3.7	4	2.7	-8%	-3.5	-14
C=CCN(CC=C)C(=O)C1CCN(S(=O)(=O)c2ccc(-n3cnnn3)cc2)CC1	4	0.2	2	3	-0.4	-6	4.4	-2%	-0.6	3
COc1cccc(NC(=S)N2C3CCCC2CC(NC(=O)C2CC2)C3)c1 (stereo unspecified)	4	0.1	2	5	-1.1	-1	0.4	·	1.4	-9
NC(=O)c1ccc(-n2nnnc2SCC(=O)Nc2ccc(F)cc2)cc1	-3	0.1	5	14	0.8	-9	-3.4	7%	-2.5	0
O=C(CSc1nnc(CNC(=O)c2ccc(F)cc2)o1)c1ccccc1	·	0.2	-11	-9	-1.1	4	·	6%	-0.5	11
COCCSc1nnc(NC(=O)C2CC(=O)N(CCc3ccc(F)cc3)C2)s1 (stereo unspecified)	7	1.1	-2	-8	-0.8	-4	-0.7	·	-3.8	2
CCc1cc(C(=O)OC)c(NC(=O)CCC(=O)O)s1	13	1.2	·	·	·	·	·	11%	·	0
COc1ccc(NC(=O)Nc2ccc(F)cc2F)c(C)c1	-25	1.3	·	·	·	-4	3.2	1%	·	-10
C[C@H](CO)N1C[C@H](C)[C@@H](CN(C)S(=O)(=O)c2ccc(F)cc2)Oc2c(NC(=O)Nc3ccc(C(F)(F)F)cc3)cccc2C1=O	·	0.4	-2&1	0&0	-1.4&-2.4	11	·	·	-3.9&3.0	·
CC(NC(=O)c1ccco1)c1ccc2c(c1)OCCO2 (stereo unspecified)	0	-0.4	·	·	·	-2	-2.1	25%	·	-5
O=C(CNC(=O)c1cc(Cl)nc2ccccc12)Nc1ccccc1Br	·	1.2	-9	-14	-2.1	-6	·	-28%	-2.1	·
COC(=O)c1ccccc1NC(=O)CC(=O)Nc1ccccc1C(=O)OC	-14	2.8	-2	-8	-5.1	-1	1.6	0%	1.7	-6
O=C(Nc1nc2c(Br)cc(Br)cc2c(=O)s1)c1ccco1	-3	3.4	0	0	-0.6	-6	-1.8	-195%	-2.2	-1
COc1cc(Cl)c(C)cc1NC(=O)CN1C(=O)C2CCCCC2C1=O (stereo unspecified)	·	0.7	·	·	·	-1	·	-16%	-2.4	·
CC(C)(C)/C(O)=C/c1nc2cc(Cl)ccc2oc1=O	1	-0.5	·	·	·	-2	-1.5	·	2.0	-7
O=C(NCCCNC(=O)C(F)(F)C(F)F)C(F)(F)C(F)F	3	0.6	·	·	·	-5	29*	-3%	·	-10
CC(=O)c1cc(OC(=O)c2ccncc2)ccc1OC(=O)c1ccncc1	-7	0.1	·	·	·	-10	-1.2	11%	·	-6
CCSc1nnc(CCNS(=O)(=O)c2ccc(C(C)=O)cc2)n1C	-1	0.9	3	-1	-2.5	-6	2.0	·	0.3	-2
CCOC(=O)C1=C(CC)OC(N)=C(C#N)C1c1ccc(F)cc1F (stereo unspecified)	-2	0.8	5	-13	-1.4	-3	2.7	·	0.4	-27
O=c1[nH]cnc2scc(-c3ccc(F)cc3)c12	-38	1.3	·	·	·	-4	?	1%	·	-4
COc1ccccc1C(=O)Nc1ccc2c(c1)nc(CN1CCCCC1)n2C	15	1.2	10	1	3.4	·	2.0	2%	-0.2	-6
Cc1cccc(C(=O)N/N=C/C(C)Cc2ccc3c(c2)OCO3)c1 (stereo unspecified)	-4	-0.3	·	·	·	-8	2.4	11%	·	11
Cc1nc(CS(=O)(=O)c2ccccn2)sc1C(=O)NNC(=O)c1c(F)cccc1Cl	-10	-0.9	14	15	2.7	-7	3.4	-2%	-0.4	2
Cc1nnsc1C(=O)Nc1ccccc1Cl	-2	0.4	·	·	·	-6	-2.0	?	·	-10
Cn1cc(S(=O)(=O)N2CCCC2)cc1C(=O)NCCc1ccccc1	-13	0.4	10	8	-0.9	1	-4.0	·	-11	0
c1ccc(-c2csc(-n3cnnn3)n2)cc1	-19	-0.2	·	·	·	-6	0.7	-3%	·	5
O=C(c1ccccc1)N1CCCC(c2ccc(Cl)cc2)=N1	8	-0.4	-26	-44	6.3	5	4.2	0%	3.8	0
O=C(NCCCc1ccccc1)c1ccc(CS(=O)Cc2ccc(Cl)cc2)o1 (stereo unspecified)	8	-0.3	-4	-39	-0.7	-2	-1.5	·	-25	11
CC(C)Cn1c(N)c(C(=O)CCl)c(=O)n(C)c1=O	2	0.6	16	10	1.8	-2	1.6	?	5.1	-20
CSc1nnc(C)c(=O)n1COC(=O)COc1ccc(F)cc1	-4	-1.0	1	14	5.0	-5	5.4	0%	3.4	19
O=C(O)Cc1cc(C(=O)Nc2ccc(Br)cc2)sc1-c1ccccc1	-1	-0.2	·	·	·	-4	4.4	-20%	·	-29
O=C(c1ccc(-c2ccc(Cl)cc2)o1)N1CCN(c2ccc([N+](=O)[O-])cc2Cl)CC1	-4	0.2	-9	-4	3.2	113*	-2.8	1%	0.7	46
COc1ccc(CN(CC(=O)NCCc2ccccc2)C(=O)CCC(=O)Nc2cc(C)ccn2)cc1	3	-0.1	1	8	0.4	1	2.6	·	1.5	15
COc1cc(/C=C2/C(=O)N(c3cccc(Br)c3)N=C2C)cc(OC)c1O	3	-0.6	-6	-12	2.7	-8	0.3	·	8.6	-10
Cc1cc(/C=C2\SC(=O)NC2=O)c(C)n1-c1ccc(N2CCOCC2)cc1	-2	-0.5	-24	-21	-0.7	9	1.4	·	2.1	4
Cc1ccc(N(C(=O)c2ccc(CN3CCOCC3)o2)C(C(=O)NCCC(C)C)c2cccs2)c(C)c1 (stereo unspecified)	1	0.1	·	·	·	-1	5.1	·	·	13
Cc1ccc(OCCN2CCN(C)CC2)c([N+](=O)[O-])c1	6	-0.2	8	0	0.8	-6	1.0	-6%	-13	16
CCOC(=O)CSc1nc(C)c2cccc(C)c2n1	4	0.8	-9	-2	0.2	2	?	-5%	-7.1	-12
CCOC(=O)C1=C(CN2CCSCC2)NC(=O)NC1c1ccc2c(c1)OCO2 (stereo unspecified)	-6	-0.5	-16	-10	-6.2	-5	1.4	1%	0.5	-5
COc1ccc(C(=O)OCCCc2cc3ccccc3c(=O)o2)cc1	·	1.0	-25	-31	-19	2	·	·	-2.9	·
O=C(O)COc1ccc2oc3ccccc3c2c1	17	0.2	-12	-10	-5.4	-2	?	·	-3.2	-2
COc1ccc(S(=O)(=O)N(C)CC(=O)NCCN2CCOCC2)cc1C	10	-0.2	9	17	-0.7	-1	-6.9	·	3.1	-11
O=C(CCn1c(=O)c2ccccc2n(Cc2cc(=O)n3ccccc3n2)c1=O)NCc1ccco1	-12	-0.9	·	·	·	-5	-1.3	17%	·	-6
CCc1c(C)nc2cc(-c3ccc(OC)c(OC)c3)nn2c1N1CCCC1	-8	-0.9	·	·	·	10	2.2	-6%	·	41
CCc1ccc(NC(=O)CSc2nc(N)c(NC(=O)c3ccc(F)c(F)c3)c(=O)[nH]2)cc1	-1	0.8	4	4	2.7	-5	2.3	3%	-3.4	-11
CC(C)NCC(O)COC1CCC(C(C)(C)C)CC1 (stereo unspecified)	-16	0.1	5	8	0.5	0	-2.6	7%	-3.0	57*
O=C(NCc1ccc2c(c1)OCO2)c1c(O)c2cccc3c2n(c1=O)CCC3	-21	0.2	·	·	·	0	-5.2	11%	·	9
Cc1cccc(C(=O)NCCCN(C)CCCNC(=O)c2cccc(C)c2)c1	-8	0.7	6	3	-5.7	-5	?	-3%	-0.9	66*
CCCCCCCCCCOC(=O)NC1CCS(=O)(=O)C1 (stereo unspecified)	22	2.3	-23	-36	-3.4	4	3.0	2%	-13	16

An excerpt from above, reduced to A1 inh:
Structure | A1 inh
O=C(CCn1c(=O)c2ccccc2n(Cc2cc(=O)n3ccccc3n2)c1=O)NCc1ccco1 | -0.9
CCc1c(C)nc2cc(-c3ccc(OC)c(OC)c3)nn2c1N1CCCC1 | -0.9
CCc1ccc(NC(=O)CSc2nc(N)c(NC(=O)c3ccc(F)c(F)c3)c(=O)[nH]2)cc1 | 0.8
CC(C)NCC(O)COC1CCC(C(C)(C)C)CC1 (stereo unspecified) | 0.1

Structures listed above that bear a hit mark in RanGTP-Impb inh.
| Structure | A1 inh | rRNA inh HTS | rRNA inh HTS OD600 | rRNA inh HTS RFP | RanGTP-Impb inh | Vif A3G | AF4-AF9 inh |
| --- | --- | --- | --- | --- | --- | --- | --- |
| O=C(NCCCNC(=O)C(F)(F)C(F)F)C(F)(F)C(F)F | 0.6 | · | · | · | 29* | -3% | · |
